From PubChem BioAssay
Vif A3G – HIV-1 Vif–A3G interaction blockers – biochemical, TR-FRET, GST-Vif 1-94, biotin-A3G peptide, dose response retest, primary screen (AID 1117319); TR-FRET GST-Vif / biotin-A3G peptide binding; higher % means a stronger effect; test concentration not given here; strong numbers were not always called active; inhibition, %; hits with a dose series show IC50 in µM; 260,000 compounds, 0.57% hits;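 active = above the screen mean plus three standard deviations and confirmed in dose response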;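 note: Vif residues 1-94 fused to GST binding biotinylated APOBEC3G peptide 110-148; 0% = full assay without inhibitor and 100% = GST in place of GST-Vif; retest series ran down from 100 µM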
AF4-AF9 inh – MLL-AF4/AF9 protein interaction inhibition | P42568 | AlphaScreen, biotin-AF4 peptide binding to FLAG-AF9 | inhibition, % at 10 µM | 350,000 compounds, 0.47% hits | AID 651704;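 active = every replicate reaching a set inhibition limit, whatever the replicate mean, cut at about 25% in these data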;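 note: 0% = plate neutral control median and 100% = total signal loss; the record names both 10 and 1 µM as test concentration; the first replicate is given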
Ecoli growth – inhibitors of Escherichia coli growth. OD600, 23 h; active compounds read low. OD600 absorbance (no concentration beside the values). 330,000 compounds, 0.21% hits. AID 1053175;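 active = OD600 absorbance below the run mean of sample wells minus 3.6 SD, in any replicate, cut at about 0.56 in these data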;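 note: stock transfer was 300 nL into about 60 µL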
FGF22 binding – FGF22 (human) thermal shift binding. Q9HCT0. recombinant FGF22 thermal shift, SYPRO orange fluorescence; percent of sucrose octasulfate shift, DMSO zero. calls only at 9.99 µM. 340,000 compounds, 1.5% hits;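 active = melting point raised past a set limit in the mean and every replicate; three in four hits are not shown here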
Target sequence (Q9HCT0 whole entry, looked up): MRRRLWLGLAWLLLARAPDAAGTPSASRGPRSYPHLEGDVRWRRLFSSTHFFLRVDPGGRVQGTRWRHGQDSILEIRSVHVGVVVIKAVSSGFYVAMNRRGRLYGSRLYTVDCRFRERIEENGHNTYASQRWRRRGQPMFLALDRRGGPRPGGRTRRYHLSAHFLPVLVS
Ecoli rRNA inh – selective bacterial rRNA inhibition in E. coli | E. coli WT GFP vs humanized-ribosome RFP mutants, fluorescence, 24 h; active compounds read low; DMSO median 0, no signal -100 | GFP signal change (wild-type ribosome), % (test concentration not listed) | 350,000 compounds, 1.6% hits;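 active = significant combined selectivity score with lowered wild-type GFP, culture density cut under 30%, mutant RFP and density less affected; inactive = any of these conditions unmet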; note: one replicate is shown; some compounds called inactive have numbers as strong as hits
HNF4A DNA FP – change in binding of human HNF4 alpha to DNA | activity change, % at 10 µM | HNF4a-FITC DNA binding, fluorescence polarization, 1 h | 360,000 compounds, 0.3% hits | P41235 | AID 1224865; in the data active = activity change above about 30%, passing the limit was not always enough;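 note: controls were the assay level and a saturating level of protein; the project sought stronger binding though the title names inhibitors; some compounds called inactive have numbers as strong as hits; positive values seem to mean higher polarization but the record does not say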
Target sequence (P41235 whole entry, looked up): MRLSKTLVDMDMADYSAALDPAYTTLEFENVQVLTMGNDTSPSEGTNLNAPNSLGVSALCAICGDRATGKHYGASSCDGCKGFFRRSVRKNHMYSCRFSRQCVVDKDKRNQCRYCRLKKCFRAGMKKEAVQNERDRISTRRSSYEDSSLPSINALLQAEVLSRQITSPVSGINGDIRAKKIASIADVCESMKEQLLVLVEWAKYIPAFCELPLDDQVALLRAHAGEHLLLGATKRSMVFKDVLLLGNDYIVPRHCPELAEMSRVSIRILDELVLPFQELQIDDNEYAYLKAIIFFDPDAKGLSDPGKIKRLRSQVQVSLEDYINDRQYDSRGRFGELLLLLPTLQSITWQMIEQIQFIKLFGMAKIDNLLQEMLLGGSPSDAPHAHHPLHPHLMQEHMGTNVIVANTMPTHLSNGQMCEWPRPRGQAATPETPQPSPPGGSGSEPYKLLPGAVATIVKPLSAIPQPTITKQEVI
ALR H2O2 inh – blocks human ALR sulfhydryl oxidase activity | purified ALR, DTT oxidation, H2O2 HRP-luminol luminescence | 290,000 compounds, 3.8% hits | inhibition, % (test concentration not listed);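 active = mean and each replicate at 75% or more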;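 note: stock transfer was 7.5 nL into about 7.5 µL; 0% = neutral wells and 100% = wells with inactivated enzyme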
Target sequence (P55789 whole entry, looked up): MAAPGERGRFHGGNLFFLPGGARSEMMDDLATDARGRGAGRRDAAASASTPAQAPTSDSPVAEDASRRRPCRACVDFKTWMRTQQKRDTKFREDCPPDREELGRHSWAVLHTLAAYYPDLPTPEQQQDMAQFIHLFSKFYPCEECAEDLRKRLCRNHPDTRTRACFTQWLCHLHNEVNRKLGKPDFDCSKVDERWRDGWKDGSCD
Ecoli rRNA inh OD600 – further read-out of Ecoli rRNA inh, marked with its call; OD600 change, %; measured here: OD600 growth;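 optical density of the mix in the first replicate; 0 = DMSO median and -100 = no signal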
Ecoli rRNA inh RFP – recorded beside Ecoli rRNA inh, whose call it bears; RFP signal change, %; measured here: RFP humanized mutant strains;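 first replicate; 0 = DMSO median and -100 = no signal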
Starred values were filed as active, the others as inactive; & = joins results of further samples. The list is partial. The share of hits here may be higher or lower than overall.

`CCc1nc2c(OCCOc3ccccc3)cccn2c1N(C)C(=O)c1cccs1` gave AF4-AF9 inh 1.5, FGF22 binding inactive, Ecoli rRNA inh -43, HNF4A DNA FP -1.9, Ecoli rRNA inh OD600 -65 and Ecoli rRNA inh RFP -6.0.
Screening Cc1cccc(-c2nnc(SCC(=O)C(C)(C)C)n2C)c1 returned Vif A3G 10%, AF4-AF9 inh -15, Ecoli growth 0.67, FGF22 binding inactive, Ecoli rRNA inh 1, HNF4A DNA FP -2.1, Ecoli rRNA inh OD600 -4 and Ecoli rRNA inh RFP -2.8.
Cc1noc(C)c1NC(=O)Nc1ccc2c(c1)CC(=O)N([C@@H](C)CO)C[C@H](C)[C@@H](CN(C)C(=O)Nc1ccc3c(c1)OCO3)O2 was read as AF4-AF9 inh -1.7, FGF22 binding inactive, Ecoli rRNA inh 1, Ecoli rRNA inh OD600 0 and Ecoli rRNA inh RFP -1.8.
`O=C(Oc1c(Cl)cc(Cl)c2cccnc12)N1CCOCC1` gave Vif A3G 1%, Ecoli growth 0.65, HNF4A DNA FP 2.6 and ALR H2O2 inh 0.
`CN(C(=O)c1cccc(S(=O)(=O)N2CCCCC2)c1)C1CCS(=O)(=O)C1` (centres undefined) gave Vif A3G 2%, AF4-AF9 inh -2.5, Ecoli growth 0.67, FGF22 binding inactive, Ecoli rRNA inh 12, HNF4A DNA FP 4.7, ALR H2O2 inh 2, Ecoli rRNA inh OD600 14 and Ecoli rRNA inh RFP 2.8.
For CC1=C(C(=O)OCC(Br)(Br)Br)C(c2cccc([N+](=O)[O-])c2)NC(=O)N1CCCC(=O)O (centres undefined) the results were AF4-AF9 inh -1.1, Ecoli growth 0.69, FGF22 binding inactive, Ecoli rRNA inh -20*, HNF4A DNA FP -3.2, ALR H2O2 inh -15, Ecoli rRNA inh OD600 -16* and Ecoli rRNA inh RFP 1.4*.
COC(=O)COc1cccc2c(=O)n(CC(=O)NCc3ccc(F)cc3)ccc12 was read as Vif A3G -4%, AF4-AF9 inh -12, Ecoli growth 0.77, FGF22 binding inactive, Ecoli rRNA inh 7, HNF4A DNA FP 4.0, ALR H2O2 inh -6, Ecoli rRNA inh OD600 9 and Ecoli rRNA inh RFP -4.9.
`CNC[C@H]1Oc2cc(C#Cc3ccc(OC)cc3)ccc2S(=O)(=O)N([C@@H](C)CO)C[C@@H]1C` gave AF4-AF9 inh 10, FGF22 binding inactive, Ecoli rRNA inh 1, Ecoli rRNA inh OD600 -13 and Ecoli rRNA inh RFP 34.
CC1(C)Cc2c(cnn2-c2ccccc2)C(NC(=O)c2ccoc2)C1 (centres undefined) was read as AF4-AF9 inh -1.5, Ecoli growth 0.7, FGF22 binding inactive, Ecoli rRNA inh 0, HNF4A DNA FP 4.2, ALR H2O2 inh 5, Ecoli rRNA inh OD600 -12 and Ecoli rRNA inh RFP -2.4.
Screening O=C(NC1CCCC1)C(c1ccc(Cl)cc1)N1CCc2ccccc21 (centres undefined) returned Vif A3G 2%, AF4-AF9 inh -5.3, Ecoli growth 0.78, FGF22 binding inactive, Ecoli rRNA inh 3, HNF4A DNA FP 0.7, ALR H2O2 inh 12, Ecoli rRNA inh OD600 1 and Ecoli rRNA inh RFP 28.
`Cc1ccc(C(=O)CNc2ccc(Br)cc2)cc1` gave Vif A3G 21%, Ecoli growth 0.75, HNF4A DNA FP -1.6 and ALR H2O2 inh -6.
`Cn1cccc1C(=O)OCC(=O)N1CC(=O)Nc2ccccc21` gave Vif A3G -4%, AF4-AF9 inh -3.0, Ecoli growth 0.65, FGF22 binding inactive, Ecoli rRNA inh 1, HNF4A DNA FP 0.4, ALR H2O2 inh -8, Ecoli rRNA inh OD600 0 and Ecoli rRNA inh RFP -0.1.
Screening CCOc1ccc(NC(=O)N2CCN(C(=O)c3ccco3)CC2)cc1 returned Vif A3G -5%, AF4-AF9 inh -1.1, Ecoli growth 0.69, FGF22 binding inactive, Ecoli rRNA inh -1, HNF4A DNA FP -0.3, ALR H2O2 inh -7, Ecoli rRNA inh OD600 7 and Ecoli rRNA inh RFP 0.9.
`Cc1noc(C)c1S(=O)(=O)N(C)C[C@H]1OCc2cnnn2CCCC(=O)N([C@@H](C)CO)C[C@H]1C` gave Vif A3G -6%, AF4-AF9 inh 0.0&0.6, FGF22 binding inactive, Ecoli rRNA inh -2&3, HNF4A DNA FP 2.5, Ecoli rRNA inh OD600 8&5 and Ecoli rRNA inh RFP 1.0&-1.0.
`CC1CCCC(C)N1CCCNC(=O)c1ccc2nc(N3CCCCC3)sc2c1` (centres undefined) gave AF4-AF9 inh -0.4, Ecoli growth 0.76, FGF22 binding inactive, Ecoli rRNA inh -1, HNF4A DNA FP -2.7, ALR H2O2 inh 7, Ecoli rRNA inh OD600 19 and Ecoli rRNA inh RFP 0.2.
CN(C)CCCN(C(=O)c1ccco1)c1nc2cc3c(cc2s1)OCO3 was read as Vif A3G -13%, AF4-AF9 inh 4.1, Ecoli growth 0.64, FGF22 binding inactive, Ecoli rRNA inh -1, HNF4A DNA FP 0.5, ALR H2O2 inh -5, Ecoli rRNA inh OD600 9 and Ecoli rRNA inh RFP 3.3.
For Cc1cc(NC(=O)Cn2cc(C(F)(F)F)cc(Cl)c2=O)no1 the results were Vif A3G -2%, Ecoli growth 0.7, HNF4A DNA FP -0.4 and ALR H2O2 inh 1.
Screening CC(=O)Nc1nnc(SCC(=O)NCC2CCCO2)s1 (centres undefined) returned Vif A3G 25%, Ecoli growth 0.67, HNF4A DNA FP -2.6 and ALR H2O2 inh -1.
Screening C=CCC1c2cccc(C(=O)O)c2C(=O)N1c1cccc(OC)c1 (centres undefined) returned Vif A3G 2%, AF4-AF9 inh -2.9, Ecoli growth 0.69, FGF22 binding active, Ecoli rRNA inh 11, HNF4A DNA FP 1.6, ALR H2O2 inh -20, Ecoli rRNA inh OD600 2 and Ecoli rRNA inh RFP -2.2.
Screening O=C1CCCN1CCCNC(=S)Nc1ccccc1 returned Vif A3G 6%, AF4-AF9 inh -0.5, Ecoli growth 0.69, FGF22 binding inactive, Ecoli rRNA inh 5, HNF4A DNA FP 1.1, ALR H2O2 inh 1, Ecoli rRNA inh OD600 5 and Ecoli rRNA inh RFP 2.9.
CCOC(=O)c1ccccc1NC(=O)COC(=O)C1=COCCO1 was read as Vif A3G 1%, Ecoli growth 0.72, HNF4A DNA FP -3.3 and ALR H2O2 inh -4.
Screening COc1cccc(S(=O)(=O)Nc2ccc3c(c2)[C@H]2C[C@@H](CC(=O)NCc4cccc(F)c4)O[C@H](CO)[C@H]2O3)c1 returned AF4-AF9 inh 2.7, FGF22 binding inactive, Ecoli rRNA inh 13, Ecoli rRNA inh OD600 -2 and Ecoli rRNA inh RFP 15.
Screening O=C(N/N=C(\CC(=O)c1cccs1)C(F)(F)F)c1ccncc1 returned AF4-AF9 inh -2.0, FGF22 binding inactive, Ecoli rRNA inh -22, HNF4A DNA FP 1.8, ALR H2O2 inh 98*, Ecoli rRNA inh OD600 -21 and Ecoli rRNA inh RFP 4.3.
`CCCOC(=S)NC(=O)c1sc2ccccc2c1Cl` gave Vif A3G 10%, Ecoli growth 0.74, HNF4A DNA FP 11 and ALR H2O2 inh 8.
CN(CC(O)COC(c1ccccc1)c1ccccc1)C1CCCCC1 (centres undefined) was read as Vif A3G -1%, AF4-AF9 inh 0.1, Ecoli growth 0.69, FGF22 binding inactive, Ecoli rRNA inh -10, HNF4A DNA FP -1.3, ALR H2O2 inh -12, Ecoli rRNA inh OD600 -23 and Ecoli rRNA inh RFP 2.0.
For COc1ccc(CCN2C(=O)CCC2(C)c2nnnn2-c2ccc3c(c2)OCCO3)cc1OC (centres undefined) the results were AF4-AF9 inh -2.2, FGF22 binding inactive, Ecoli rRNA inh 2, HNF4A DNA FP 3.4, Ecoli rRNA inh OD600 0 and Ecoli rRNA inh RFP 3.4.
Screening C[C@H]1CN([C@@H](C)CO)C(=O)c2cccc(NS(=O)(=O)c3cn(C)cn3)c2O[C@H]1CN(C)C returned AF4-AF9 inh -2.2, FGF22 binding inactive, Ecoli rRNA inh -1, Ecoli rRNA inh OD600 1 and Ecoli rRNA inh RFP -0.6.
COc1ccc(S(=O)(=O)N(C)C[C@H]2OCc3cn(nn3)CCCC(=O)N([C@@H](C)CO)C[C@H]2C)cc1 was read as AF4-AF9 inh -0.6, FGF22 binding inactive, Ecoli rRNA inh 1, Ecoli rRNA inh OD600 1 and Ecoli rRNA inh RFP -3.1.
Screening COc1cccc(CNC(=O)C[C@H]2CC[C@H](NC(=O)C3CCC3)[C@@H](CO)O2)c1 returned AF4-AF9 inh -0.6, FGF22 binding inactive, Ecoli rRNA inh 4, Ecoli rRNA inh OD600 5 and Ecoli rRNA inh RFP -1.1.
For COc1cccc(C(=O)NC(=S)Nn2cnnc2)c1OC the results were Vif A3G 6%, AF4-AF9 inh -2.4, Ecoli growth 0.71, FGF22 binding inactive, Ecoli rRNA inh -1, HNF4A DNA FP -4.9, ALR H2O2 inh -4, Ecoli rRNA inh OD600 4 and Ecoli rRNA inh RFP -2.8.
For N=c1c2c(ncn1Cc1ccco1)Oc1c(ccc3ccccc13)C2c1ccccc1 (centres undefined) the results were Vif A3G 0%, Ecoli growth 0.71, HNF4A DNA FP 2.5 and ALR H2O2 inh -3.
`O=C(COc1ccccc1)Nc1nc(-c2ccc(S(=O)(=O)N3CCOCC3)cc2)cs1` gave Vif A3G -69%, Ecoli growth 0.74, HNF4A DNA FP 0.7 and ALR H2O2 inh -11.
`CCS(=O)(=O)N[C@H]1CC[C@H](CC(=O)Nc2ccc(-c3ccccc3)cc2)O[C@@H]1CO` gave AF4-AF9 inh -16, FGF22 binding inactive, Ecoli rRNA inh -2, Ecoli rRNA inh OD600 -6 and Ecoli rRNA inh RFP 0.9.
For Cc1noc(C)c1C(=O)OCC(=O)Nc1ncc(Cl)c(C)c1Cl the results were Vif A3G 14%, AF4-AF9 inh 4.3, Ecoli growth 0.66, FGF22 binding inactive, Ecoli rRNA inh 11, HNF4A DNA FP -7.4, ALR H2O2 inh -13, Ecoli rRNA inh OD600 12 and Ecoli rRNA inh RFP 1.2.
`CC(C)[C@H]1CN=C2N(CCNC(=O)CCC3CCCCC3)[C@H](Cc3ccc(O)cc3)CN21` gave Vif A3G -7%, AF4-AF9 inh 0.2, FGF22 binding inactive, Ecoli rRNA inh -24, HNF4A DNA FP 5.1, ALR H2O2 inh -14, Ecoli rRNA inh OD600 -41 and Ecoli rRNA inh RFP -16.
For Cc1ccc(NC2CCCN(C(=O)c3nonc3C)C2)cc1C (centres undefined) the results were Vif A3G 0%, AF4-AF9 inh 7.2, FGF22 binding inactive, Ecoli rRNA inh -2, HNF4A DNA FP -5.8, Ecoli rRNA inh OD600 -13 and Ecoli rRNA inh RFP 2.1.
For CC(C)CC#Cc1ccc2c(c1)O[C@@H](CN(C)C(=O)Nc1ccccc1F)[C@H](C)CN([C@H](C)CO)S2(=O)=O the results were AF4-AF9 inh 0.8, FGF22 binding inactive, Ecoli rRNA inh 0, Ecoli rRNA inh OD600 -8 and Ecoli rRNA inh RFP 3.6.
